Compound activity from PubChem BioAssay.
Cruzain noTriton: cruzain (T. cruzi) inhibition without detergent | P25779 | Potency, µM, for the others: max response, negative = inhibition, actives largely listed as inhibitors | purified cruzain, Z-FR-AMC fluorescence, no detergent | AID 1476 | hit rate 2.3% among 200,000; active = well fitted curve in the direction sought with a large enough effect; inconclusive = small, poorly fitted or top-dose-only effect, or another doubt; inactive = no such curve, though single readings can be large; an effect the other way counts as inactive or inconclusive;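 note: plate controls were enzyme without inhibitor for no effect and buffer without enzyme for full effect; nearly all actives have a fitted effect of over 40% in size; top concentration of the series not given in the record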
Target sequence (P25779 123-467 limits assumed): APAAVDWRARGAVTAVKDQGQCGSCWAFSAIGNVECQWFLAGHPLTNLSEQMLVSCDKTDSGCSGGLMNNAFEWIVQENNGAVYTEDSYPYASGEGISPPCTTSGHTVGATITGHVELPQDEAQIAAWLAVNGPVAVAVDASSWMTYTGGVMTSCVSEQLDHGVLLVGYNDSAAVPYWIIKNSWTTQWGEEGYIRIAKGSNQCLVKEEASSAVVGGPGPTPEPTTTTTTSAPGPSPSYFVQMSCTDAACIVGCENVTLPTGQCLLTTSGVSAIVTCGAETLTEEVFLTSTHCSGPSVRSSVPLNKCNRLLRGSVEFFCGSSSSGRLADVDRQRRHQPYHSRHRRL
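Purified cruzain at 1.5 nM, pre-incubated 15 min with compound at room temperature in 100 mM sodium acetate pH 5.5, 5 mM DTT, 0.00005% Triton X-100. Reaction started with 2 uM Z-FR-AMC; AMC fluorescence increase over 60 s gives rate.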
Cruzain Triton: blocks cruzain activity in presence of Triton detergent. purified cruzain, Z-FR-AMC fluorescence, 0.01% Triton. hit rate 0.43% among 200,000. Potency, µM, for inactives: max response, negative = inhibition, usual class: inhibitors; active = well fitted curve in the direction sought with a large enough effect; inconclusive = small, poorly fitted or top-dose-only effect, or another doubt; inactive = no such curve, though single readings can be large; an effect the other way counts as inactive or inconclusive;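 note: plate controls were neutral wells for no effect and buffer without enzyme for full effect; nearly all actives have a fitted effect of over 40% in size; top concentration of the series not given in the record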
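Cysteine protease activity tested under reducing, mildly acidic conditions (100 mM sodium acetate pH 5.5, 5 mM DTT) plus 0.01% Triton X-100. Cruzain 1.5 nM; substrate Z-FR-AMC 2 uM; 15 min compound preincubation at room temperature.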
LASV entry inh: inhibitors of Lassa virus binding or cell entry | Lassa virus pseudotype entry inhibition, cell reporter; control for the full effect not named in the record | Potency, µM (top dose mostly 37.9 µM), for the others: at the highest dose activity change, negative = inhibition, most hits filed as inhibitors | hit rate 1.2% among 300,000; active means well fitted inhibition curve with a large enough effect; inconclusive means small, poorly fitted or top-dose-only effect, or effect the other way; inactive means flat fitted curve, though single readings scatter; tested in HEK293 cells; note: % is set by controls: 0 for no effect and ±100 for the full control effect; nearly all actives have a fitted effect of over 50% in size; luciferase read-out
NS1 function inh: inhibitors of influenza NS1 protein function. S. cerevisiae slowed by influenza A NS1, growth recovery by OD600. Potency, µM (top dose mostly 46.1 µM), for the others: at the highest dose activity, positive = more growth. hit rate 0.4% among 270,000. AID 2326; note: actives are rising curves; nearly all actives have a fitted effect of over 50% in size
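Read-out: OD600 growth recovery of NS1-expressing budding yeast. Cells grown overnight at 30C in -URA glucose medium, washed, resuspended and diluted 1:100 in 2% galactose assay medium, pH 6.0. Same strain lacking NS1 served as positive control.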
RE007 growth inh: less growth of the S. pombe RE007 Vpr strain; Potency, µM (highest dose often 92.2 µM), for the others: at the top dose activity change, negative = less growth; S. pombe RE007 Vpr strain, BacTiter-Glo ATP luminescence, 24 h; control for the full effect not named in the record; hit rate 0.21% among 360,000; AID 651644; active = well fitted falling curve with a large enough effect; inconclusive = small, poorly fitted or top-dose-only effect; inactive = no such curve, though single readings can be large or run the other way;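 note: % is set by controls: 0 for no effect and ±100 for the full control effect; nearly all actives have a fitted effect of over 50% in size; the assay follows cell death caused by Vpr and the record does not say whether a fall means rescue or toxicity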
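Fission yeast strain RE007, carrying one chromosomally integrated HIV-1 vpr copy, was seeded at OD 0.01 in PMG+AL medium with 23 nL pinned compound. After 24 h at 30 °C and 99% humidity, viability was read by BacTiter-Glo luminescence.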
StopGo reporter: FMDV 2A StopGo reporter, luciferase signal. human cells with a luciferase reporter of 2A StopGo recoding; control for the full effect not named in the record. AID 1159524. Potency, µM (top dose mostly 57.9 µM), without a hit: at the highest dose signal change, negative = less light. hit rate 1.2% among 410,000; active = well fitted falling curve with a large enough effect; inconclusive = small, poorly fitted or top-dose-only effect; inactive = no such curve, though single readings can be large or run the other way; tested in HEK293T cells; note: % is set by controls: 0 for no effect and ±100 for the full control effect; nearly all actives have a fitted effect of over 45% in size; luciferase light after 4 h
Marburg entry inh: Marburg virus entry inhibition. Marburg virus pseudotyped entry inhibition, cell reporter; control for the full effect not named in the record; about a third of the inactives were read at about 46 µM. Potency, µM (series often up to 37.8 µM), for the others: top-dose activity change, negative = inhibition, hits mostly inhibitors. hit rate 1.8% among 300,000. AID 540276; active = well fitted inhibition curve with a large enough effect; inconclusive = small, poorly fitted or top-dose-only effect, or effect the other way; inactive = flat fitted curve, though single readings scatter; tested in HEK293 cells; about a fifth of its hits are not listed in these tables; note: % is set by controls: 0 for no effect and ±100 for the full control effect; luciferase read-out
SARS PLpro yeast: blocks SARS-CoV papain-like protease in a yeast assay. S. cerevisiae expressing SARS-CoV PLpro, growth rescue; control for the full effect not named in the record. Potency, µM (series often up to 32.9 µM), for inactives: at the highest dose activity, positive = growth rescue. hit rate 0.19% among 330,000. AID 485353; note: 0% is about no effect; nearly all actives have a fitted effect of over 55% in size; growth read by luminescence after 48 h
Numbers without * were called inactive; ? = inconclusive; . = not tested or not shown; & = joins results of further samples; [ ] = another dose, or the depositor's remark. Unless noted, calls come from the whole dose curve; as a rule, active means well fitted rising curve with a large enough effect; inconclusive means small, poorly fitted or top-dose-only effect; inactive means no such curve, though single readings can be large or run the other way. Potency is the fitted concentration of half-maximal effect.

SMILES	Cruzain noTriton	Cruzain Triton	LASV entry inh	NS1 function inh	RE007 growth inh	StopGo reporter	Marburg entry inh	SARS PLpro yeast
O=C(NNC(=O)c1ccccc1F)c1ccc(-c2ccc(Cl)cc2)o1	.	.	-9.6%	.	-5.7%	-17.7%	?	0.8%
Cc1ccc(N2CC(C(=O)OCC(=O)C(C)(C)C)CC2=O)cc1C (stereo not drawn)	1.1%	-4.1%	-2.2%	-19.4%	-18.2%	-16.7%	0.4%	2.6%
COc1cc2ncc3c(-c4ccccc4)nn(CC(=O)NC4CCCCC4)c3c2cc1OC	-12.8%	0.3%	-13.8%[46.1 µM]	.	.	12.4%	.	.
Cc1ccc(C(C#N)c2ccc(Cl)nn2)cc1 (stereo not drawn)	.	.	11.9%	.	30.9%	30.0%[activator]	14.3%[46.1 µM]	2.4%
CC(=O)c1ccc(OCCOc2ccc([N+](=O)[O-])cc2)cc1	.	.	0.8%[46.1 µM]	-36.0%	-16.8%	8.1%	?	-6.5%
Cc1ccccc1Nc1nc(N)nc(COC(=O)c2ccc(O)cc2)n1	3.4%	-3.0%	?	4.9%	-12.6%	10.0%	24.4%	-23.5%
Cc1cccc(NC(=S)N(Cc2ccc(Cl)cc2)Cc2ccc(C(=O)O)cc2)c1	.	.	?	.	7.4%	-11.2%	20.5%[46.1 µM]	-7.5%
c1ccc(-c2ccccc2OCCN2CCCC2)cc1	.	.	-28.4%[46.1 µM]	18.3%	1.4%	-2.1%	?	-1.7%
CCCC(C)CC1(CCO)C(=O)NC(=S)NC1=O (stereo not drawn)	.	.	-5.3%[46.1 µM]	.	-15.8%	-10.0%	-16.6%[46.1 µM]	.
COc1ccc2nc(NC(=O)c3ccc(-c4cccc([N+](=O)[O-])c4)o3)sc2c1	12.6µM*	0.8%	.	?	.	.	.	-3.9%
O=c1c2ccccc2nnn1-c1ccccc1	.	.	3.5%[46.1 µM]	.	-4.3%	20.4%	-0.3%	.
Cc1cc(C(=O)NNC(=O)c2ccc(F)cc2)c(C)s1	.	.	12.6%	.	-4.3%	55.5%[activator]	?	1.5%
CSc1nc(N2CCOCC2)c2c(c1C#N)CC(C(C)C)OC2 (stereo not drawn)	.	.	.	-4.3%	-13.9%	-17.0%	.	-0.2%
COCCn1c(SCc2ccc(Cl)cc2)nc2c1c(=O)[nH]c(=O)n2C	.	.	-22.8%	.	16.4%	?	18.5%	.
COc1ccc(-n2c(=O)c3sc4ccccc4c3n(CC(=O)N3CCCC3)c2=O)cc1	4.5%	0.9%	16.9%[46.1 µM]	.	.	0.0%	0.3%[46.1 µM]	.
CCCC(C(=O)NC1CCCCC1)N(Cc1ccco1)C(=O)CNS(=O)(=O)c1ccccc1 (stereo not drawn)	-0.5%	1.0%	?	2.1%	4.6%	-2.6%	2.7%&-27.5%	9.7%
CC(=O)Oc1cc2c(cc1Cl)C(c1cccs1)CC1(CC(C)(C)NC(=S)N1)O2 (stereo not drawn)	.	.	?	1.2%	7.1%	7.6%	?	-0.8%
CC(=O)Nc1ccc(S(=O)(=O)NCCC(=O)OCC(=O)c2ccc(Br)cc2)cc1	.	.	?	.	-19.7%	-9.5%	4.1%	3.0%
Cc1csc2nc(COc3ccccc3NC(=O)c3ccco3)cc(=O)n12	-1.1%	3.6%	11.5%[46.1 µM]	.	.	-2.4%	11.5%[46.1 µM]	.
O=P(Nc1ccccc1)(Nc1ccccc1)Oc1ccc(Cl)cc1	-12.6%	-6.1%	3.6%	0.8%	7.5%	29.4%	?	-5.8%
O=C(c1ccc(CS(=O)Cc2cccc(Cl)c2)o1)N1CCN(C2CCCCC2)CC1 (stereo not drawn)	.	.	-16.2%[46.1 µM]	5.1%	7.6%	-14.6%	29.6%[46.1 µM]	-0.6%
COc1ccc(-c2[nH]ncc2CN2CCN(Cc3cccs3)CC2)cc1F	.	.	.	0.4%	-7.3%	-9.4%	.	0.0%
COc1ccc(N=C2NC(=O)S/C2=C\c2ccc(N(C)C)cc2)cc1	?	-2.9%	-2.9%	-8.7%	-15.5%	67.4%[activator]	-22.8%	-4.9%
Cc1ccccc1-n1c(SCc2ccc(Cl)cc2)nc2[nH]ncc2c1=O	8.5%	-0.5%	-3.4%[46.1 µM]	.	.	?	.	.
Cc1cccc(-c2nc3ccccc3c(=O)n2NC(=O)c2cccs2)c1	-6.9%	-1.7%	3.8%	-14.5%	11.0%	-19.6%	-1.6%	-6.1%
Cc1ccc(CN2CCN(/N=C/c3ccc(C(F)(F)F)cc3)CC2)cc1	-2.5%	-3.5%	-18.8%	0.0%	-0.9%	0.0%	8.8%	4.9%
CCCCCCc1nc(C(N)=O)c2[nH]c(=O)n(-c3ccc(OC)cc3OC)c2n1	.	.	.	29.7%	2.6%	-28.4%	.	-2.9%
CC(=O)C1C(=O)c2c(cccc2[N+](=O)[O-])C1=Nc1cccc(Cl)c1 (stereo not drawn)	.	.	.	17.9%	-6.0%	-0.4%	-27.1%	0.6%
O=C(COC(=O)/C=C/c1ccc(OC(F)F)cc1)NC(=O)NC1CCCCC1	.	.	4.9%[46.1 µM]	.	-5.3%	-11.4%	13.1%	17.5%
CCOC(=O)Cn1c(CN2CCN(c3ccc(OC)cc3)CC2)nc2c1c(=O)[nH]c(=O)n2C	12.2%	-0.4%	-2.2%[46.1 µM]	.	.	7.4%	-0.7%[46.1 µM]	.
CCOC(=O)C(=O)N/N=C/c1ccco1	.	.	7.0%	-4.0%	13.4%	10.6%	17.1%[46.1 µM]	0.0%
CC(C)(C)OC(=O)NCc1n[nH]c(=S)n1C1CC1	.	.	14.7%	7.9%	3.6%	-9.1%	20.9%	-1.1%
Cc1ccc2cc(CN(C(=O)c3ccco3)c3ccccc3C)c(=O)[nH]c2c1	-26.8%	-4.0%	6.3%	7.3%	17.3%	-18.8%	-8.8%	-1.5%
COc1cc2c(cc1NC(=O)COC(=O)C1CC(=O)N(Cc3ccco3)C1)oc1ccccc12 (stereo not drawn)	-12.5%	-6.9%	20.3%	-3.8%	22.5%	49.2%[activator]	-2.9%&1.1%	2.3%
CCCC(NC(=O)Cc1c(C)c2c(cc(C)c3c(C)coc32)oc1=O)C(=O)O (stereo not drawn)	.	.	.	4.5%	5.5%	-12.4%	.	0.0%
c1ccc(COCC2CCNCC2)cc1	.	.	2.4%[46.1 µM]	15.3%	-7.3%	0.3%	7.6%[46.1 µM]	3.0%
CCOC(=O)N1CCc2c(sc(NC(=O)C3COc4ccccc4O3)c2C(N)=O)C1 (stereo not drawn)	.	.	.	-0.5%	0.0%	39.8µM*	.	3.7%
CCOc1ccc(-c2nn[nH]n2)cc1OCC	17.2%	-3.4%	12.6%	6.5%	36.5%	-16.6%	0.3%	7.4%
O=C(c1ccc(F)cc1)N1CCN(c2cnn(-c3ccccc3)c(=O)c2Cl)CC1	.	.	3.2%	.	0.0%	?	1.3%[46.1 µM]	0.4%
O=C1CCC(C(=O)Nc2cccc(C(F)(F)F)c2)N1 (stereo not drawn)	-6.7%	1.8%	-6.3%	2.5%	9.1%	-5.1%	1.8%	-3.8%
CCc1ccccc1NC(=O)Cn1cc2c(n1)CCC(C)C2 (stereo not drawn)	26.8%	-4.0%	4.4%[46.1 µM]	.	.	20.2%	5.0%[46.1 µM]	.
CC(NCC(O)COc1ccc2ccccc2c1)c1ccccc1 (stereo not drawn)	.	.	1.4%	-7.4%	-7.1%	-20.2%	?	0.2%
Cc1cccc(NC(=O)C(Cc2ccccc2)n2cccc2)c1 (stereo not drawn)	.	.	.	-7.2%	-7.7%	-12.9%	-2.7%	-6.7%
CCOc1ccccc1N(CC(=O)Nc1ccccc1F)S(=O)(=O)c1ccccc1	.	.	.	-2.8%	2.8%	4.4%	.	-2.9%
COc1ccccc1C(=O)COC(=O)c1nc2nc(C)cc(C)n2n1	.	.	17.5%	.	7.5%	-16.7%	?	0.3%
COc1ccc(S(=O)(=O)N(CCc2ccccc2)CC(=O)O)cc1Cl	-7.2%	-0.1%	2.8%	-6.0%	17.3%	3.8%	-0.7%	?
CO[C@@H]1O[C@@H]2COC(c3ccccc3)O[C@@H]2[C@@H](OC)[C@@H]1O (stereo partly drawn)	-24.8%	8.6%	-4.1%	-1.3%	7.7%	7.3%	14.4%	-0.9%
COc1ccc(/C=C/C(=O)N(C)C2CCS(=O)(=O)C2)cc1OC (stereo not drawn)	0.3%	-3.4%	?	-5.2%	-1.2%	0.0%	4.1%	22.0%
CC(=O)Nc1ccc2c(c1)nc(CCN1CCN(C)CC1)n2C	2.3%	-0.8%	8.7%	-4.9%	6.4%	17.1%	12.7%	-2.3%
COc1ccc(-n2c(SCCNCCO)nc3sc4c(c3c2=O)CCCC4)cc1	.	.	?	11.7%	-8.4%	-6.9%	?	3.1%
CC(C)(C)n1nc2c(c1NC(=O)c1ccccc1)CS(=O)(=O)C2	.	.	11.7%	.	9.3%	-3.8%	6.9%[46.1 µM]	0.9%
c1ccc(CNc2nc3ccccc3n2CCN2CCOCC2)nc1	-1.7%	2.3%	?	?	-15.6%	.	10.4%	-2.3%
COc1cccc(CN2CC(C(=O)N(C)Cc3ccnc4ccccc34)CCC2=O)c1 (stereo not drawn)	.	.	.	-16.4%	7.5%	-8.4%	.	4.7%
COC(=O)[C@@H]1C[C@@]2(O)[C@H](O)[C@H](O)[C@H](O)C[C@H]2N1Cc1cc(OC)cc(OC)c1	5.3%	3.2%	.	3.6%	4.5%	2.4%	.	4.5%
Cc1ccc(S(=O)(=O)CCC(=O)OCC(=O)NCc2ccccc2)cc1	.	.	-3.5%	.	10.4%	-7.5%	17.1%	-3.8%
OCCC1CN(Cc2cnc(N3CCCC3)s2)CCN1C1CCCC1 (stereo not drawn)	.	.	30.0%[46.1 µM]	3.6%	-2.9%	-15.8%	-1.0%[46.1 µM]	-0.2%
Cc1ccccc1NC(=O)C1CC(=O)N(c2ccc3c4c(cccc24)CC3)C1 (stereo not drawn)	23.6%	-0.2%	-3.9%	1.0%	2.7%	.	-10.4%	-4.6%
